VDR inh: blocks the human vitamin D receptor. P11473. 400,000 tested, 0.93% active. Potency, µM, for inactives: max response, negative = inhibition, usual class: inhibitors. VDR-SRC2-3 peptide fluorescence polarization, 2 h. AID 504847; active means well fitted inhibition curve with a large enough effect; inconclusive means small, poorly fitted or top-dose-only effect, or another doubt; inactive means no such curve, though single readings can be large or run the other way; further: series mostly up to about 120 µM
Target sequence (P11473 whole entry, looked up): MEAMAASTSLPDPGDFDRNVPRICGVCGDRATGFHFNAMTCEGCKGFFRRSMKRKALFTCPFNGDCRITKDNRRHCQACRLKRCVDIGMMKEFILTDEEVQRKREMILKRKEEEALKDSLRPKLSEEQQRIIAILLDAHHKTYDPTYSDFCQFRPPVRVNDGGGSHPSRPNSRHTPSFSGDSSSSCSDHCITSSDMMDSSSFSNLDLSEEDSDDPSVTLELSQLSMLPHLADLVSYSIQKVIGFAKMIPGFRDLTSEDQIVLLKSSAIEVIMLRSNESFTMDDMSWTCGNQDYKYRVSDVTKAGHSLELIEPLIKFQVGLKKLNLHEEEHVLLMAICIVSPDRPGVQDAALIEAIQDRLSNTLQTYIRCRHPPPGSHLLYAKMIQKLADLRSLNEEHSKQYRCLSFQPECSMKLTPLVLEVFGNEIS
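Measured by FP: displacement of SRC2-3 coactivator peptide from VDR by library compounds, following a two-hour ambient incubation.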
Active calls of the source: *; ? = inconclusive; & = joins results of further samples; [ ] = another dose, or the depositor's remark. On the % scale 0 is the no-effect control and ±100 the full control effect; potency means the concentration at half of the fitted maximal effect. These rows are one share of the data; the hit share may differ from the screen's.

SMILES,VDR inh
CC(N=C1CC(C)(C)CC(=O)/C1=C(/O)CCCN1C(=O)c2ccccc2C1=O)C(=O)O (centres undefined),21%
CCc1ccc(NC(=S)N(CCC(C)C)C2CCN(C(C)=O)CC2)cc1,7%
O=C1CCC(=O)N1CNc1cccnc1,-17%
COc1cccc(OC)c1C(=O)Nn1c(-c2cccc(C)c2)nc2ccccc2c1=O,-22%
N#Cc1ccc(C(=O)NC2CCCCCCC2)cc1,-11%
COc1cc(/C=C2\SC(=S)N(CCC(=O)N3CCCCC3)C2=O)cc(OC)c1OC,2%
OCCNC(=S)Nc1cccc(Cl)c1Cl,-17%
COc1ccc(CC(=O)Nc2ccc(F)c(F)c2F)cc1S(=O)(=O)N1CCOCC1,-16%
Cc1c(OCC(=O)N2CCC(C(=O)O)CC2)ccc2c3c(c(=O)oc12)CCC3,?
COc1cc(/C=N/Nc2nc(Nc3ccccc3)nc(N3CCOCC3)n2)ccc1OC(=O)c1ccco1,0%
O=C(N/N=C/c1cccs1)c1cccc(S(=O)(=O)Nc2ccc(Cl)cc2)c1,-10%
CN1N=C(C(C)(C)C)CSC1=Nc1ccccc1,0%
COc1ccc(OC)c(-c2nnc(SCC(=O)N3CCOCC3)o2)c1,-5%
CCOC(=O)[C@@H]1[C@H]2COc3cc(OC)ccc3[C@H]2N2C(=O)N(c3cccc(F)c3)C(=O)[C@]12C,-1%
S=C(NCC1CCCO1)Nc1cccc(Cl)c1 (centres undefined),-8%
COc1ccc(NC(=O)C2c3cc(OC)c(OC)cc3C(=O)N(C)C2c2cccnc2)cc1OC (centres undefined),-1%
O=C(O)CCC(=O)NNc1ncnc2ccccc12,21%
COc1ccc(Nc2nc3c(S(=O)(=O)c4ccc(Br)cc4)nnn3c3ccsc23)c(OC)c1,7%
C=CC[n+]1c(-c2ccc(OCC)cc2)csc1NNC(=O)Nc1ccccc1,-8%
COc1cc(C(c2c(C)[nH][nH]c2=O)c2c(C)[nH][nH]c2=O)ccc1OC(C)C,?
O=C(Cc1cccs1)N1CCN(c2cccc(Cl)c2)CC1,3%
COc1cccc(/C=C/C(=O)NCc2cn3cc(Cl)ccc3n2)c1,16%
CCN1C(=O)C(CC(=O)NC2CCCCC2)N(CC)C1=O (centres undefined),-13%
O=c1[nH]c(CN2CCCC2)nc2sc3c(c12)CCC3,-12%
CCOC(=O)NNC(=O)NCCCCCCNC(=O)NNC(=O)OCC,-5%
CCOc1ccc(C2CC(=O)NC2=O)cc1 (centres undefined),-11%
CC(C)N1C(=O)S/C(=C/c2ccccc2OCc2ccc(C(=O)O)cc2)C1=O,?
Cc1ccc(S(=O)(=O)NCCC(=O)NNC(=O)COc2ccccc2Cl)cc1C,8%
O=C(CCSc1nc(-c2ccc3c(c2)OCO3)cc(C(F)(F)F)n1)NCc1ccco1,0%
CNC(=S)NNC(=O)c1oc2nc(-c3ccccc3)cc(-c3ccco3)c2c1N,?

Rewritten with values ahead of the structure: entries from further up
VDR inh | canonical_smiles
-22% | COc1cccc(OC)c1C(=O)Nn1c(-c2cccc(C)c2)nc2ccccc2c1=O
-11% | N#Cc1ccc(C(=O)NC2CCCCCCC2)cc1
2% | COc1cc(/C=C2\SC(=S)N(CCC(=O)N3CCCCC3)C2=O)cc(OC)c1OC
-17% | OCCNC(=S)Nc1cccc(Cl)c1Cl
-16% | COc1ccc(CC(=O)Nc2ccc(F)c(F)c2F)cc1S(=O)(=O)N1CCOCC1
? | Cc1c(OCC(=O)N2CCC(C(=O)O)CC2)ccc2c3c(c(=O)oc12)CCC3

More entries follow:
SMILES,VDR inh
Cc1sc2nc(CSc3ccccc3)nc(N3CCC(C(N)=O)CC3)c2c1C,-13%
COCCN(Cc1ccccc1)C(=O)c1cccc(S(=O)(=O)N2CCN(c3ccc(F)cc3)CC2)c1,-5%
Nc1ccc(C(=O)N/N=C/c2cn(Cc3cccc(F)c3)c3ccccc23)cc1,-7%
CSCC[C@H](NC(=O)Nc1cccc(C(F)(F)F)c1)C(=O)O,-7%
COc1ccc(/C=C2\CCn3c2nc2cc(C(=O)O)ccc2c3=O)cc1,6%
CC(=O)c1cccc(NS(=O)(=O)c2ccc3[nH]c4c(c3c2)CCCCCC4)c1,3%
c1ccc(-c2sc3ccccc3c2-c2ccc(OCCN3CCCC3)cc2)cc1,-14%
CC(NCc1ccc2c(c1)n(C)c(=O)n2C)c1ccccc1 (centres undefined),5%
O=C1OC(Oc2ccccc2)(c2ccccc2)c2ccccc21 (centres undefined),-2%
CC1(C)Oc2ccc3ccc(=O)oc3c2C(/C=N/O)C1=O (centres undefined),-11%
CCOC(=O)C1C2C=CC3(CN(Cc4cccs4)C(=O)C13)O2 (centres undefined),-8%
O=Cc1c(Cl)cccc1Cl,-10%&2%
CCN(CC)S(=O)(=O)c1cc([N+](=O)[O-])ccc1N=Nc1c(O)n(C)c2ccccc12,-13%
O=C(OCc1cc(Cl)ccc1OC(F)F)c1cccnc1,3%
COc1ccc2[nH]c3c(c2c1)CCN1C(=O)N([C@@H](C)C(=O)NC2CC2)C(=O)[C@]31C,-19%
Cc1ccc(CNC(=O)c2ccc3c(c2)c(C)c(C)n3Cc2ccccc2)o1,10%
CC(=O)n1cc(/C=C2/N=C(c3ccccc3)OC2=O)c2ccccc21,14%
CCCCN(C)CCC(=O)Nc1ccc(Cl)cc1,-5%
COCC(C)N=C1NN=C(c2cc(C)n(Cc3ccccc3Cl)c2C)CS1 (centres undefined),-7%
COC(=O)COc1ccc(S(=O)(=O)NC2CCCCCC2)cc1,-13%
COC(=O)Nc1ccc(S(=O)(=O)Nc2ccc(O)cc2)cc1,1%
CCOCCOC(=O)CCSc1n[nH]c(=O)[nH]c1=O,15%
O=[N+]([O-])c1cc(S(=O)(=O)Nc2cccc(C(F)(F)F)c2)ccc1-n1nnc2ccccc21,10%
COC(=O)NCc1ccc(S(=O)(=O)N2CCOCC2)cc1,7%
CNC(=S)Nc1ccc2nc(C)oc2c1,12%
CN(Cc1cn(C)nc1-c1cccc(Cl)c1)CC1CCCCO1 (centres undefined),-13%
COc1cc(/C=N/Nc2ccc(C(F)(F)F)cn2)cc(OC)c1O,-4%
CCOP(=O)(c1ccccc1)C1(C#N)CCCC1 (centres undefined),5%
CC(=O)c1ccc(NC(=O)C2=CC(c3cccs3)=NS(=O)(=O)N2C)cc1,13%&14%
Cc1nccn1CCCNC(=O)CC1C(=O)NCCN1Cc1ccccc1C(F)(F)F (centres undefined),15%
COc1ccccc1NC(=S)N(CCN1CCCCCC1)Cc1cccs1,3%
COc1ccc(CCNC(=O)C2CC3Cn4c(nc5ccccc54)C3N2c2ccccc2)cc1 (centres undefined),1%
COc1ccc(OC)c2sc(NC(=O)C3CC3)nc12,7%
O=C(c1cc(Br)ccc1OC(F)F)N1CCN2CCCC2C1 (centres undefined),8%
CC(C)(C)C(=O)Nc1ccc2c(c1)OCCOCCOc1cc(NC(=O)C(C)(C)C)ccc1OCCOCCO2,4%
COc1ccc(-n2nnnc2CNC(=O)c2ccc(S(=O)(=O)N3CCOCC3)cc2)cc1,-8%
COc1ccc(C2=CSC3=NCCN23)cc1Cl,5%
COC(=O)CN1C(=S)N(c2ccc(Cl)cc2)C(=O)C1CC(=O)Nc1ccc(Cl)cc1 (centres undefined),-6%
NS(=O)(=O)c1ccc(N2CCN(CCOc3ccc(Cl)cc3)CC2)nc1,?
Cc1ccccc1S(=O)(=O)NCC1CCCO1 (centres undefined),7%
Cc1cc(Cl)ccc1Oc1cccc(C(=O)/C(C#N)=C/N(C)C)c1,-21%
COc1ccc(-n2nnc3c(=O)n(CC(=O)OCc4ccccc4)cnc32)cc1,-14%
COCCCN1C(=O)c2ccc(C(=O)N3CCN(c4ccccc4OC)CC3)cc2C1=O,18%
c1ccc(Oc2ccc3ccccc3n2)cc1,8%
CCOC(=O)C1C(=O)C(C(=O)OCC)C(c2cccnc2)NC1c1cccnc1 (centres undefined),1%
O=C(Cn1cc(C(F)(F)F)ccc1=O)Nc1ccccc1,7%
Cc1ccc(NC(=O)CSc2nc3ccccc3nc2Cc2ccccc2)c(C)c1,14%
CCN1C(=O)c2ccccc2Sc2ccc(NC(=O)Cc3ccc(OC)cc3)cc21,7%
COc1ccc(N2CCN(C3CCCN(C(=O)CCN4CCCCO4)C3)CC2)cc1 (centres undefined),-20%
COc1cc(NC(=O)CCS(=O)(=O)c2ccc3nc(C)sc3c2)cc(OC)c1OC,16%
CN1CCN(c2ncc3ncc(=O)n(-c4ccccc4)c3n2)CC1,-20%
CCCCn1nnc(NC(=S)NC(=O)c2ccc(OCC)c([N+](=O)[O-])c2)n1,-11%
CCN(CC(=O)Nc1ccc(C(C)=O)cc1)CC(=O)Nc1ccccc1C(F)(F)F,11%
CCN(CC(=O)NC(=O)NCc1ccccc1)Cc1ccccc1,13%
N#CCCN(Cc1cccnc1)C(=S)NC(=O)c1ccc(S(=O)(=O)N2CCCC2)cc1,-8%
O=C(NCc1cccc(C(F)(F)F)c1)c1cc(Cl)cc(Cl)c1,-15%
COc1ccc(C(=O)NCc2ccccc2OC)cc1,-8%
CCc1nc2ccccc2n1CCC(C)C,3%
CCC(=O)N(NC1=NS(=O)(=O)c2ccccc21)S(=O)(=O)c1ccc(C)cc1,0%
Cc1cccc(Nc2nc(N)c([N+](=O)[O-])c(N3CC(C)OC(C)C3)n2)c1 (centres undefined),0%

Additional records follow:
SMILES,VDR inh
O=C(CSc1nc(-c2ccccc2)c(-c2ccccc2)[nH]1)NCCN1C(=O)CSC1=O,-9%
OCC1(CCOc2ccccc2)CCN(Cc2ccccc2C(F)(F)F)CC1,-23%
COc1ccc(Nc2nc(N)nc(CSC(=S)N3CCOCC3)n2)cc1,22%
CCNC(=S)NS(=O)(=O)c1ccc(CC)cc1,19%
CCCSc1nsc(SCCC)c1C(N)=O,17%
Cc1csc(NC(=O)C(C)Oc2ccc(Cl)cc2C)n1 (centres undefined),-19%
CCC(Cc1ccccc1)NS(=O)(=O)c1c(C)nc2scc(C)n2c1=O (centres undefined),-6%
C=CCc1cc(C)ccc1OCC(O)CN1CCN(c2ccccc2)CC1 (centres undefined),2%
Cc1ccccc1Cn1c(CN2CCN(C(=O)c3ccco3)CC2)nc2c1c(=O)n(C)c(=O)n2C,-2%
CCn1c(SCC(=O)Nc2nc(C)cs2)nnc1-c1cccnc1,-1%
COc1cc(NS(=O)(=O)c2cnc(N)nc2)cc(OC)c1,2%
CN(C)CCCNC(=O)c1cc(C(=O)Cc2ccc(Cl)cc2)c[nH]1,5%
OC(CNCc1ccccc1)COCc1ccc(Cl)cc1 (centres undefined),-4%
Cc1ccc(C(=O)Nc2cc3c(cc2N2CCCC2)n(C)c(=O)c(=O)n3C)cc1,4%
C=CCn1ccc2c([N+](=O)[O-])cccc2c1=O,-7%
O=C(NCc1ccccn1)C1(C(F)(F)F)CC(CCCO)CCCO1 (centres undefined),-7%
Cc1cnc(CNC(=O)c2ccc3oc(Cc4ccc(Cl)cc4)nc3c2)cn1,-7%
COc1cc(Nc2ccccn2)cc(C(=O)Nc2cccc(C(F)(F)F)c2)c1,4%
Cc1cc(C)n2nc(C(=O)NCCc3ccccc3)nc2n1,-10%
CCOc1ccc(N(CC(=O)NC2CCCCC2)C(=O)CCCC(=O)Nc2ccccn2)cc1,15%
Cc1ccc(-c2nnc3n2N=C(c2ccccc2Br)CS3)cc1,-15%
Cc1cccc(OCc2nc(-c3cccnc3)no2)c1,-6%
Cc1c(CCOC(=O)CC23CC4CC(CC(C)(C4)C2)C3)sc[n+]1Cc1ccc([N+](=O)[O-])cc1,9%&20%
COc1ccc(-c2cc(C(F)(F)F)nc(SCCC(=O)N3CCCC3)n2)cc1,-3%
COc1cc(C(=O)NCCC2=CCCCC2)cc(OC)c1OC,-3%
Cc1ccc(C)c(Nc2cc(C(=O)NC3CCCCC3)c3ccccc3n2)c1,-8%
CC(C)(C)c1ccc(C(=O)NCCCNC(=O)c2ccccn2)cc1,3%
CCn1ccc2cc(S(=O)(=O)N3CCCN(C(=O)Nc4cccc(SC)c4)CC3)ccc21,-1%
COCCNC(=O)c1cn(Cc2c(F)cccc2Cl)nn1,-5%
CCN(CC)Cc1cc(O)c(CN(CC)CC)cc1O,-3%
COc1cc(S(=O)(=O)Nc2ccc(C(=O)NCC(=O)O)cc2)ccc1NC(C)=O,-9%
CCOC(=O)NC(Nc1nnc(C)s1)(C(=O)OCC)C(F)(F)F (centres undefined),-14%
Cc1ccc(NC(=O)Nc2cn(C)c(=O)c3ccccc23)c(Cl)c1,20%
CC1Cc2ccccc2N1C(=O)CSc1nnc(-c2ccccc2)c(-c2ccccc2)n1 (centres undefined),31%[activator]
CCOC(=O)c1cccc(NC(=O)C2CCCN(S(=O)(=O)c3c(C)n[nH]c3C)C2)c1 (centres undefined),18%
Cc1ccc(-c2nnc(N3CCN(C(=O)c4cccs4)CC3)c3ccccc23)cc1,-10%
COc1ccc(C(=O)/C=C/c2ccsc2)cc1CSCC(=O)O,?
CCCN1CCN(c2nc(-c3cccs3)nc3ccccc23)CC1,11%

Screening data: PubChem, National Center for Advancing Translational Sciences (NCATS)
